Source: PubChem BioAssay
Calb biofilm kill – mixture kills Candida albicans biofilm cells. C. albicans biofilm persisters + clotrimazole, fluorescence viability; primary screen in compound mixtures of four per well. inhibition, % at 7.6 µM. actives 0.02% (n = 120,000). AID 1242;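 active = inhibition above 30.3% in the primary screen of four-compound pools, then above 30% when the compound was retested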;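 also: compounds exposed to preformed 24 h biofilms for 48 h; the number belongs to the whole pool; some results filed as inactive read as strong as hits; inactives centre near 12; 0% = biofilm with clotrimazole alone and 100% = kill control; retested singly at about 60 µM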
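System: C. albicans CAF4-2 wild-type biofilms; Medium: RPMI/MOPS medium, pH 7.0; Reagent: Clotrimazole, 50 µg/mL; Times: biofilm formation 24 h, compound exposure 48 h, 37 °C; Detection: 2-h Alamar Blue fluorescence, 535/590 nm excitation/emission; Evaluation: percent inhibition of biofilm viability.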
Numbers without * were called inactive. Not all compounds are listed; rates above refer to the full screens.

cpd	molecule	Calb biofilm kill
1	COCCNC(=S)Nc1cc(S(=O)(=O)N2CCOCC2)ccc1N1CCCCC1	10
2	CC(C)C(=O)N(Cc1ccc(F)cc1)Cc1nc2ccccc2c(=O)[nH]1	-5
3	CSc1cccc(CN2CCN(CCC(C)C)C(CCO)C2)c1 (centres undefined)	16
4	CCOc1ccc(Oc2ccccc2NC(=O)CCNC(C)=O)cc1	-1
5	CN(C)C(=O)c1ccc2c3c(cccc13)CC2	25
6	CC1=NOC(=O)/C1=C/c1ccc(O)cc1	20
7	Cc1cc(CNCc2cn(C)nc2-c2ccc(Oc3ccccc3)cc2)on1	15
8	COc1cc(/C=N/n2c(-c3n[nH]c4c3CCC4)n[nH]c2=S)ccc1O	16

Overlap with the part before: two entries, then new ones.
cpd	molecule	Calb biofilm kill
7	Cc1cc(CNCc2cn(C)nc2-c2ccc(Oc3ccccc3)cc2)on1	15
8	COc1cc(/C=N/n2c(-c3n[nH]c4c3CCC4)n[nH]c2=S)ccc1O	16
9	CCCc1sc(N/N=C/c2ccccn2)nc1-c1ccc(Br)cc1	12
10	Cc1ccc(-c2cc(C(=O)OCC(=O)N(C)C3CCS(=O)(=O)C3)c3ccccc3n2)o1 (centres undefined)	9
11	Nc1cc(-c2cccc([N+](=O)[O-])c2)[nH]n1	23
12	CN1/C(=C\C(=O)Nc2cccc(Cl)c2)C(C)(C)c2ccccc21	15
13	COc1ccccc1CNC(=O)CSc1ccc(-c2ccncc2)nn1	14
14	CCCc1nc2c(nnn2Cc2ccccc2Cl)c(=O)[nH]1	14
15	CCOc1ccc(NC(=O)CN(C)CC(=O)Nc2ccccc2SC)cc1OCC	-3
16	O=C(CNC(=S)NC(=O)c1ccccc1Br)c1ccccc1	10
17	CCSc1nnc([C@@H](NC(=O)OC(C)(C)C)C(C)C)o1	27
18	CC(=O)CSc1ccc(C(=O)O)cn1	9
19	O=C(NC1CC2CCC(C1)N2Cc1ccco1)c1ccccc1 (centres undefined)	10
20	COCCNC(=O)C(c1ccc(Cl)cc1)N(CCOC)C(=O)CCC(=O)Nc1nccs1 (centres undefined)	9
21	CCO[C@@H]1OC(C(=O)NCc2ccccc2)=C[C@H](c2ccc3c(c2)OCO3)[C@H]1CCCO	19
22	O=C(CN1CCC(O)(c2ccc3c(c2)OCO3)CC1)NC1CCCCC1	10
23	COc1cc(NC(=O)c2cccnc2SC)cc(OC)c1OC	15
24	CC(=O)Nc1cc2c(cc1[N+](=O)[O-])OCCO2	-3
25	COc1ccc(C(=O)Nn2cnnc2)cc1OC	14
26	CC(C)NS(=O)(=O)c1ccc(OCC(=O)N2CCCC2)cc1	2
27	C[N+](C)(C)CCCN(Cc1ccc2c(c1)OCO2)C(=O)NC1CCCCC1	11
28	NC(=O)c1ccc(NC(=O)COC(=O)c2ccc3c(c2)OCCO3)cc1	15
29	CCCn1cc(CN2CCC(N3CCC(C(=O)N4CCOCC4)CC3)CC2)c(C)n1	4
30	CC(=O)Nc1sc2c(c1-c1nc3ccccc3s1)CCN(C(C)C)C2	16
31	S=C(NCCCn1ccnc1)Nc1ccc(Cl)cc1Cl	5
32	O=C(CN1c2cccc3cccc(c23)S1(=O)=O)Nc1ccc(S(=O)(=O)N2CCOCC2)cc1	4
33	CCOC(CNC(=O)c1ccc2c(c1)nc(C)n2-c1cccc(F)c1)OCC	-1
34	CCOC(=O)/C=C(C)\C=C\c1c[nH]c2ccccc12	13
35	CC(=O)Nc1ccc(S(=O)(=O)N(C)CC(=O)OCC(=O)NC(C)C23CC4CC(CC(C4)C2)C3)cc1 (centres undefined)	10
36	CNC(=O)c1ccc(-n2cccn2)nc1	9
37	O=C(O)/C(=C\c1ccccc1OC(F)F)Sc1nnc(-c2ccc(F)cc2)o1	14
38	COc1ccc(CC(=O)Nc2ccc(-c3ccc4nnc(C)n4n3)cc2)cc1OC	4
39	N#CCOc1nc(N2CCCCC2)nc(N2CCCCC2)n1	6
40	COc1ccc(OC)c(-n2c(SCC(=O)Nc3cccc(S(N)(=O)=O)c3)nc3ccccc3c2=O)c1	14
41	C/C=C(\C)C(=O)Nc1cccc(C2=NOC3(C2)C[C@H](C(N)=O)N(C(=O)c2cc([N+](=O)[O-])cc([N+](=O)[O-])c2)C3)c1 (some centres undefined)	11
42	Cc1ccc(-n2c(SCC(=O)N3CCCCC3)nc(O)cc2=O)cc1	21
43	COC(=O)c1ccccc1NS(=O)(=O)c1ccc(Cl)nc1	7
44	COCCCNC(=S)N/N=C/c1cccc(OC)c1O	4
45	N#Cc1c(-c2ccccc2)cc(-c2ccccc2)nc1SCC(=O)NCC(=O)O	9
46	COc1ccccc1N1CCN(C2=Nc3cccc4cccc2c34)CC1	5
47	CCOC(=O)c1c(Cc2ccc(Cl)cc2)c[nH]c1C	16
48	O=C(N/N=C/C(Br)=C/c1ccccc1)C1CC1	10
49	COc1ccc(NC(=O)COC(=O)C2CC3C=CC2C3)cc1 (centres undefined)	6
50	CSc1nc2ccccc2n1CC(=O)Nc1ccc(C)c(C)c1	14
51	O=c1c(Cl)c(N2CCN(c3ccccc3)CC2)cnn1C12CC3CC(CC(C3)C1)C2	16
52	C#CCOCCOCCOCCNc1nc(N2CCN(C(=O)[C@H]([C@@H](C)CC)n3cc([C@@H](N)Cc4ccc(O)cc4)nn3)CC2)nc(N2CCN(C(=O)[C@H]([C@@H](C)CC)n3cc([C@@H](N)Cc4ccc(O)cc4)nn3)CC2)n1	14
53	Cc1cccc(C(=O)NC2CCN(S(=O)(=O)c3ccccc3)CC2)c1	25
54	COc1cccc(CNc2ccc(S(N)(=O)=O)cc2)c1OCc1ccccc1F	6
55	Cn1ncc(Cl)c1C(=O)Nc1cc(C(F)(F)F)ccc1F	6
56	Cc1ccc(NC(=O)C(=O)NN)cc1	20
57	CC(C)CC(=O)Nc1cccc(-c2nc3ccccc3[nH]2)c1	13
58	COc1ccc(C(C(=O)NC(C)C)N(C(=O)CCC(=O)Nc2nccs2)c2ccccc2F)cc1 (centres undefined)	10
59	Cn1cnnc1Sc1ccc(C(=O)OCC(=O)Nc2ccccc2)cc1[N+](=O)[O-]	17
60	Cc1ccc(S(=O)(=O)N2CC=C(C(=O)NCc3ccccc3)CC2)cc1	17
61	O=C(CSc1nc2ccccc2c(=O)n1-c1ccc(F)c(Cl)c1)Nc1cccc(S(=O)(=O)N2CCOCC2)c1	13
62	Cc1ccc2nc(SCC(=O)c3c[nH]c4ccccc34)[nH]c2c1	10
63	CCOc1ccccc1N1CCN(C(=S)NCc2ccc(Cl)cc2)CC1	5
64	Cc1ccccc1Nc1nnc(SCc2nc3ccccc3c(=O)[nH]2)s1	27

Next results:
cpd	molecule	Calb biofilm kill
65	CCOC(=O)c1nnc(-c2ccccc2)[nH]c1=O	-7
66	Cc1cc(CNCc2c(C(=O)N3CCCCCCC3)nc3ccc(Cl)cn23)nn1C	7
67	COc1ccc(C2/C=C\CN(C(=O)C3CCCC3)[C@H](Cc3ccccc3)C(=O)N2Cc2ccc(F)cc2)cc1 (some centres undefined)	19
68	CC(C)(C)c1ccc(C2CC2C(=O)N/N=C\c2ccc[nH]2)cc1 (centres undefined)	22
69	CC(C)(C)c1ccc(OC(=O)Nc2ccc(O)c(C(=O)O)c2)cc1	20
70	C/C(N)=C(/C#N)C(=O)COC(=O)CNS(=O)(=O)c1ccc(C)cc1	6
71	CCSc1nnc(NC(=O)CSc2nnc(C)c(=O)n2N)s1	2
72	Oc1nc(Nc2cccc(Cl)c2)sc1/C=C1\C=Nc2ccccc21	24

Quoted at random: seven compounds from above, in no set order.
cpd	molecule	Calb biofilm kill
70	C/C(N)=C(/C#N)C(=O)COC(=O)CNS(=O)(=O)c1ccc(C)cc1	6
67	COc1ccc(C2/C=C\CN(C(=O)C3CCCC3)[C@H](Cc3ccccc3)C(=O)N2Cc2ccc(F)cc2)cc1 (some centres undefined)	19
71	CCSc1nnc(NC(=O)CSc2nnc(C)c(=O)n2N)s1	2
69	CC(C)(C)c1ccc(OC(=O)Nc2ccc(O)c(C(=O)O)c2)cc1	20
65	CCOC(=O)c1nnc(-c2ccccc2)[nH]c1=O	-7
68	CC(C)(C)c1ccc(C2CC2C(=O)N/N=C\c2ccc[nH]2)cc1 (centres undefined)	22
72	Oc1nc(Nc2cccc(Cl)c2)sc1/C=C1\C=Nc2ccccc21	24

Going on with the list.
cpd	molecule	Calb biofilm kill
73	Fc1ccc(-c2[nH]ncc2CN(CC2CCC2)CC2CCCO2)c(F)c1 (centres undefined)	17
74	CC1CCN(CC(=O)Nc2cc(C(F)(F)F)ccc2Cl)CC1	4
75	c1cnc2c(c1)ncc1cscc12	12
76	COc1ccc(/C=N/NC(=O)CSc2n[nH]c(=O)[nH]c2=O)cc1	7
77	Cc1cc(C)n(C2CC(=O)N(c3ccccc3)C2=O)n1 (centres undefined)	19
78	CC/C(=N/NC(=O)CCC(=O)Nc1ccccc1OC)c1ccccc1	2
79	CC(C)CN1CCC(=O)N(CCSc2ccc(Br)cc2)CC1	14
80	Cc1ccc(NC(=O)COC(=O)CCc2ccc(S(=O)(=O)N3CCOCC3)cc2)cc1C	7
81	CCCCC(=O)Nc1ccc(C(=O)c2ccccc2)cc1	11
82	NC(=O)N1CCc2ccccc21	-4
83	COc1ccc(-c2cnnc(N/N=C/C(C)=C/c3ccccc3)n2)cc1	19
84	Cc1ccc(SCC(=O)c2ccc[nH]2)cc1	15
85	CC1CC1C(=O)Nc1cc(S(=O)(=O)N2CCOCC2)ccc1N1CCCC1 (centres undefined)	21
86	CCn1c(-c2c(Cl)c(C)nn2C)n[nH]c1=S	10
87	Cc1cc(NCc2ccccn2)n2nc(C)c(-c3ccccc3)c2n1	9
88	CCCc1cc(C(=O)N2CCC(N3CCC(C(=O)NC(C)C)CC3)CC2)n(C)n1	21
89	CCN(CCO)Cc1csc2ccc(Cl)cc12	9
90	Cc1ccc(CNC(=O)COC(=O)c2ccc(Br)cc2)cc1	8
91	CCN(C(=O)COC(=O)c1c(NC(C)=O)sc(C)c1C)C1CCS(=O)(=O)C1 (centres undefined)	19
92	O=C(Nc1ccccc1Cl)N1CCSc2ccccc21	17
93	C=CCC(C(=O)c1ccccc1)[N+](C)(C)CC=C (centres undefined)	13
94	COc1ccc(CNc2ccc(C)c(C)c2)c(OC)c1OC	10
95	O=C(CN1CCOc2ccccc21)NCc1ccc(F)cc1	13
96	CCCC(CCC)C(=O)Oc1cc(C)[nH]c(=O)c1[N+](=O)[O-]	14
97	CCOC(=O)c1cnc(SCC(=O)N2CCC(C(N)=O)CC2)nc1N	26
98	COc1ccc(NC(=O)NN(C(=O)c2ccccc2)C(C)(C)C)cc1	11
99	CC(=O)Nc1ccc(C2=NN(Cc3nnc(-c4ccccc4)o3)C(=O)SC2)cc1	6
100	CC(=O)Nc1ccc(S(=O)(=O)NCC(=O)OCC(=O)N2CCCc3ccccc32)cc1	15
101	O=C(c1cccc(C(F)(F)F)c1)N(c1ccccn1)C1CCCCC1	0
102	COc1nc(OC)nc(Oc2ccc([N+](=O)[O-])cc2Cl)n1	9
103	Cc1onc(-c2c(Cl)cccc2Cl)c1/C(N)=N/OC(=O)C(C)(C)C	12
104	CN1OC(c2ccccc2)=C(CO)C1c1ccccc1 (centres undefined)	12
105	O=C(CCc1nnc(Cc2ccc(-c3ccccc3)cc2)o1)N1CCCC1	18
106	COc1ccc(NC(=O)C2C3CCC4C(CCC32)C4(Cl)Cl)cc1 (centres undefined)	8
107	Cc1cccc(C)c1NC(=O)C(NS(=O)(=O)c1cccs1)c1ccccc1 (centres undefined)	9
108	COC(=O)C1=C(C)NC=C([N+](=O)[O-])C1c1ccc(OC)cc1 (centres undefined)	8
109	CCCCn1c2nc3ccccc3nc2c2c(=O)n(-c3ccccc3)cnc21	17
110	COc1ccc(-c2cn3cccnc3n2)cc1NS(=O)(=O)c1ccccc1	21
111	CCOC(=O)c1cnc(-n2nc(C)cc2C)nc1NNc1nc(-c2ccccc2)cc(-c2ccccc2)n1	4
112	COc1ccc(/C=N/Nc2cn[nH]c(=O)c2Cl)cc1	8
113	CCCCOP(=O)(c1ccc(N(C)C)cc1)C(Nc1ccccc1)c1ccccc1 (centres undefined)	13
114	O=C(Nc1nnc(-c2ccccc2F)s1)c1cccnc1	28
115	CC1CC(=O)Nc2ccccc2N1C(=O)Nc1ccccc1 (centres undefined)	7
116	CCN1CCc2c(OCC(=O)Nc3cccc(C)c3C)cccc2C1=O	14
117	COC(=O)c1ccc2c(=O)n(Cc3ccc4c(c3)OCO4)c(SCC(=O)N3CCCC3)nc2c1	22
118	CC(=O)Nc1ccc(/C(C)=N/Nc2nc(Nc3ccccc3)nc(N3CCOCC3)n2)cc1	11
119	CCS(=O)(=O)N1CCN(c2ccc([N+](=O)[O-])c(NCC3CCCO3)c2)CC1 (centres undefined)	7
120	Nc1ncc(-c2ccccc2)c(-c2ccc(OCc3ccccc3)cc2O)n1	14
121	O=C(c1cnn2c(C(F)F)cc(-c3ccccc3)nc12)N1CCc2ccccc2C1	2
122	CCN(CC)c1ccc(C(=O)c2cnc(/N=C/N(C)C)s2)cc1	11
123	Cc1cc(NC(=O)CSc2ccc(F)cc2)no1	8
124	COc1cc(/C=N/NC(=O)c2cccc(S(=O)(=O)N3CCCCC3)c2)cc(Br)c1O	5
125	CCOC(=O)c1cc(C#N)c(SCC(=O)Nc2ccc(C(C)=O)cc2)[nH]c1=O	23
126	COc1cc(C=O)ccc1OCCCCOc1ccccc1[N+](=O)[O-]	9
127	O=C(COC(=O)CCc1c[nH]c2ccccc12)NCc1ccc2c(c1)OCO2	12
